Env fusion inh – inhibitors of HIV Env-mediated cell fusion; HeLa-JRFL Env/CEM21 cell fusion, luciferase; inhibition, % at 12.3 µM; actives 1.1% (n = 360,000); AID 651610;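 active means mean replicate inhibition score of at least 50 and every replicate individually at or above 50; inconclusive means only one of the two criteria met; inactive means mean below 50 and not all replicates reaching 50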;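 further: 0% = plate neutral controls and 100% = maraviroc near 300 nM; one replicate is shown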
MT1-MMP act inh – MT1-MMP (human) activation inhibition; P50281; HT1080 RFP-PRO-GFP cells, GFP/RFP ratio fluorescence, overnight; percent of plate control window, DMSO zero; GFP/RFP ratio change, % at 20 µM; actives 0.061% (n = 360,000); AID 651647;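 active means GFP/RFP ratio change of at least 30% with cell ATP level not reduced by more than half and red fluorescence within 50% of control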; further: strong numbers were not always called active
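Assay system: HT1080 RFP-PRO-GFP cells. Benchmarks: DMSO vehicle wells and RFP-L50D-GFP reporter cell wells. Times: overnight cell settling, then overnight compound exposure, 37 °C, 5% CO2. Compound: 20 µM single dose, 1% DMSO. Read-out basis: GFP/RFP fluorescence ratio.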
Rce1 inhib – yeast Ras-converting enzyme inhibition | AID 2563 | Q03530 | calls only | yeast membranes, quenched prenylated peptide cleavage fluorescence | actives 0.27% (n = 290,000);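 active means fall in fluorescence gain of 50% or more versus controls, with final raw signal at or below 3038400; inconclusive means same 50% fall but final raw signal above 3038400; inactive means fall in fluorescence gain under 50%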;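 further: plate controls were neutral control wells for no effect and wells lacking membranes for full effect; tested at 10 µM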
Target sequence (Q03530 whole entry, looked up): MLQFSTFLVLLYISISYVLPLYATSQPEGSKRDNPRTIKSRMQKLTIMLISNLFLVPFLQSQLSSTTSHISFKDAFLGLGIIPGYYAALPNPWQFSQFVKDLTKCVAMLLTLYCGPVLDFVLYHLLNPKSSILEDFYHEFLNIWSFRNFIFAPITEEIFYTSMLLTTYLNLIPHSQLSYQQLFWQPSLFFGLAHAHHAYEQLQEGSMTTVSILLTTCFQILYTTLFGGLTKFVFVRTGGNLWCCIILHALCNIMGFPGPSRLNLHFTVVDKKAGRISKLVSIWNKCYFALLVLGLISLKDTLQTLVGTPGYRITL
CSC inhib – cancer stem cell inhibition | actives 1.1% (n = 300,000) | cancer stem cell-like cells viability, luminescence | inhibition, % at 7.5 µM;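 active means mean at 75% or more and at least half the replicates too; inconclusive means mean and replicates disagree; tested in HMLE shEcad cells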;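 further: 0% = median of negative and 100% = median of positive control wells; the first replicate is given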
PABP polyA inh – PABP-poly(A) binding inhibition. P11940. PABP-poly(A) RNA binding, fluorescence polarization. inhibition, % at 35 µM. actives 1% (n = 290,000). AID 2014;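 active means 50% or more with normal probe brightness, or confirmed in later tests; inconclusive means above 50% with abnormal brightness, or retests that disagree; inactive means below 50% or failed in later tests; about a fifth of its hits are not listed in these tables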;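 further: calls also rest on retests at 20 µM and on dose response follow-up; controls were probe without protein and protein plus probe with vehicle; some compounds called inactive have numbers as strong as hits; many hits fall short of the cut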
Target sequence (P11940 whole entry, looked up): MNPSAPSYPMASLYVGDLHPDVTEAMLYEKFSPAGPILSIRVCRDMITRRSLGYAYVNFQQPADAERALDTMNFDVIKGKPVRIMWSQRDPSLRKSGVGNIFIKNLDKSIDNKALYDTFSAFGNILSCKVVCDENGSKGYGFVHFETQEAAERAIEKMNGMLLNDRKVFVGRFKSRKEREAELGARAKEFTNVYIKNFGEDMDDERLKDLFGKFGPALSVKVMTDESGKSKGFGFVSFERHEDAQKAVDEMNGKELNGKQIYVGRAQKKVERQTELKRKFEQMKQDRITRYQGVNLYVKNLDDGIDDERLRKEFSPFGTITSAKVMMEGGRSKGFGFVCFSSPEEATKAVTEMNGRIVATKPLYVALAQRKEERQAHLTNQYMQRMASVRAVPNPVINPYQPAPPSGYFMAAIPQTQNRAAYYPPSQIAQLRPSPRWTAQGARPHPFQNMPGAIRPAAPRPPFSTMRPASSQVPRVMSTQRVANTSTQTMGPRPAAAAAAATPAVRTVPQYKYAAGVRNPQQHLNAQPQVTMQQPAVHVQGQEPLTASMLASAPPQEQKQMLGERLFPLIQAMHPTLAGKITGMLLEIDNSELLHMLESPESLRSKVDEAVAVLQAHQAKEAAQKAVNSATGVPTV
eIF4H FP inh – inhibitors of RNA binding by human eIF4H; inhibition, % at 35 µM; actives 0.94% (n = 290,000); Q15056; eIF4H fluorescence polarization binding assay;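 active means 50% or more with normal probe brightness, or confirmed in later tests; inconclusive means above 50% with abnormal brightness, or retests that disagree; inactive means below 50% or failed in later tests; about a fifth of its hits are not listed in these tables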;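 further: calls also rest on retests at 20 µM and on dose response follow-up; 0% = protein and probe with vehicle and 100% = probe without protein; strong numbers were not always called active; many hits fall short of the cut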
Yeast UUG start – yeast start codon fidelity modulation; actives 0.13% (n = 350,000); S. cerevisiae UUG-firefly luciferase reporter, luminescence/redox ratio; activity score, % at 18.7 µM;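 active means replicate mean at a twofold rise or more, about +100% in these data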;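 further: firefly luciferase made from a UUG start codon reports start codon fidelity; reporter light over untreated wells divided by growth signal over untreated wells; some hits fall short of that in this replicate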
MT1-MMP act inh RFP – second read-out of MT1-MMP act inh, no call of its own (marks repeat the call); RFP signal change, %; measured here: RFP expression control read;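 0 = vehicle wells; hits needed this value within 50% of zero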
The depositor's hits bear a star; i = inactive; u = inconclusive; x = no result given; & = joins results of further samples. This is a subset; rates above refer to the full screens.

SMILES	Env fusion inh	MT1-MMP act inh	MT1-MMP act inh RFP	Rce1 inhib	CSC inhib	PABP polyA inh	eIF4H FP inh	Yeast UUG start
CNc1nc(N)c([N+](=O)[O-])c(NCc2ccccc2)n1	-53.2	7.0	11.8	i	-5.1	-6.5	-2.4	-9.1
CC(C)Cc1nnc(NC(=O)CCC(=O)N2CCC(C)CC2)s1	-0.8	0.9	3.2	i	-2.2	-5.5	-10.6	-17.6
O=C(O)C1CCCCC1C(=O)Nc1nccs1 (stereo unspecified)	x	-2.6	3.9	i	3.7	6.0	-3.8	-12.7
S=C(Nc1ccccc1)N(Cc1ccccc1)Cc1ccncc1	-8.7	1.3	1.8	i	x	-1.2	-0.1	-20.7
O=C(NCCCN1CCOCC1)c1cc(-c2ccc(Br)cc2)on1	u	-2.9	-4.4	i	-28.8	-0.7	-7.3	-1.7
Cc1ccc2c(C)c(C(=O)N(Cc3cccs3)C3CCS(=O)(=O)C3)oc2c1 (stereo unspecified)	-2.9	-6.0	-2.6	i	9.3	-3.7	-0.8	-6.1
C[C@@H]1CN([C@H](C)CO)C(=O)c2cc(Br)cnc2O[C@@H]1CN(C)C(=O)c1cccc(F)c1	3.6	0.1	3.2	x	x	x	x	-8.6&-2.5
CSc1nsc(SCc2cnc(C)nc2N)n1	x	3.1	4.6	i	-3.4	1.8	-5.6	-11.6
O=C1N(c2ccccc2C(F)(F)F)O[C@@]1(c1ccccc1)C1CCCC1	11.1	2.8	0.7	x	61.4	x	x	-14.6
CCOc1ccccc1-n1c(SCC(N)=O)nc2ccccc2c1=O	5.3	2.3	4.7	i	-4.3	-1.2	-4.9	-3.0
O=c1ccc(=O)n2n1CC(O)C2	x	5.0	7.7	i	-6.5	-7.3	-1.6	-20.8
Cn1c(SCc2ccccc2)nc2ccsc2c1=O	21.6	-8.6	-21.0	i	-4.9	-0.6	0.6	x
COc1ccc(NC(=O)Nc2ccc3nonc3c2)cc1	-42.8	3.2	-6.0	i	-4.3	6.1	0.2	-15.0
CCC(C)Sc1ccc(-c2nc3ccc(C)cn3c2NC2CCCCC2)cc1 (stereo unspecified)	x	x	x	i	49.0	x	x	-7.0
COCCn1c(C)cc(C(=O)COC(=O)c2ccc3c(c2)NC(=O)CS3)c1C	21.9	1.7	1.5	i	3.9	11.0	17.5	x
COC(=O)Cc1ccc2oc(-c3cccnc3)nc2c1	-24.8	3.7	2.3	i	x	-2.7	-5.1	-3.6
Nc1cnn(C2CCCO2)c(=O)n1 (stereo unspecified)	x	3.3	3.2	i	x	-12.4	-2.5	2.7
CCOc1cc(NC(=S)NCCCN(C)C)c(OCC)cc1NC(=O)C1CC1	9.4	4.1	10.8	i	-3.6	-2.8	-5.8	-28.6
Cc1cccc(C(=O)OCC(=O)Nc2ccc(N3CCCCC3)cc2)c1O	-9.6	5.8	2.5	i	-10.2	-3.4	5.4	-13.2
Cn1c(SCC(=O)N2CCN(c3ccccc3)CC2)nnc1-c1c[nH]c2ccccc12	33.5	10.5	-21.2	i	11.8	8.1	2.2	-23.0
CC(=O)/C(N=Nc1ccc(SC(F)F)cc1)=C(\C)O	-36.9	-0.1	-0.4	i	-9.0	12.8	-1.6	x
Cc1ccc(N(Cc2ccccc2)C(=O)c2cc(S(=O)(=O)N3CCOCC3)ccc2C)cc1	x	-5.8	-6.1	i	-2.5	x	x	x
Oc1[nH]c2ccccc2c1N=Nc1nc2ccccc2s1	-294.2	-24.9	2.9	i	2.9	20.3	25.4	-11.2
CCCn1c(-c2ccc(F)cc2)n[nH]c1=S	-29.2	10.3	7.9	i	-12.7	-5.6	-4.8	-16.8
COc1ccc2c(c1)C(=O)C1(CC2)OC1c1cccnc1 (stereo unspecified)	1.6	0.2	-3.2	x	x	x	x	-18.9
COc1ccccc1OCC(=O)OC/C(O)=C(\C#N)c1nc2ccccc2[nH]1	-9.0	0.4	4.3	i	20.8	5.1	16.8	-35.2
Cc1csc2nc(O)c(C(=O)NC3CCCCCC3)c(=O)n12	9.2	-4.3	-4.4	i	14.9	x	x	-6.1
CCOC(=O)c1ccc(N2C(=O)CC(NC3CCN(C(=O)c4cccc(Cl)c4)CC3)C2=O)cc1 (stereo unspecified)	x	x	x	i	9.9	-14.7	-7.6	x
COc1cc(OC)c(C(=O)NCC2CCCO2)cc1OC (stereo unspecified)	-5.9	-0.8	2.1	i	x	-9.9	6.4	-5.1
COc1ccc(CC(=O)Nc2ccc(-c3noc(-c4ccc(Cl)cc4)n3)cc2)cc1	-15.0	-4.6	-3.0	i	21.2	-10.2	-11.1	-15.2
Cc1ccc(F)cc1NC(=O)N1c2ccccc2NC(=O)CC1C (stereo unspecified)	-9.5	-1.9	0.0	i	-4.2	-1.2	-0.3	-16.5
Cc1cc(-c2ccc(C(C)C)c(S(=O)(=O)N3CCOc4ccccc43)c2)on1	11.8	-6.3	-12.3	i	23.1	-4.7	-4.0	-1.1
O=C(CCN1C(=O)c2ccccc2C1=O)C1=NN[C@@H]2C(=O)N(c3cccc(Cl)c3)C(=O)[C@H]12	5.1	0.0	1.3	i	-16.2	-1.1	4.7	x
Cn1c(NC(=O)C2CCCC2)cc(=O)n(C)c1=O	-5.3	2.1	1.3	i	-8.1	11.8	6.1	-13.0
O=c1c2cc(Br)ccc2nc(-c2ccc(Cl)cc2)n1O	12.8	-3.7	-3.0	i	23.7	13.9	1.9	-10.4
CCOC(=O)c1sc(/N=C/N(C)C)c(C(=O)OCC)c1C	-7.4	-4.3	-1.0	i	13.8	-2.5	-8.5	-1.0

The closing 2 compounds of the part above open the next one:
SMILES	Env fusion inh	MT1-MMP act inh	MT1-MMP act inh RFP	Rce1 inhib	CSC inhib	PABP polyA inh	eIF4H FP inh	Yeast UUG start
O=c1c2cc(Br)ccc2nc(-c2ccc(Cl)cc2)n1O	12.8	-3.7	-3.0	i	23.7	13.9	1.9	-10.4
CCOC(=O)c1sc(/N=C/N(C)C)c(C(=O)OCC)c1C	-7.4	-4.3	-1.0	i	13.8	-2.5	-8.5	-1.0
NC(N)=NN=C1c2ccccc2-c2ccccc21	-16.8	-0.9	-3.7	i	-10.5	-2.1	-1.5	-16.7
CCOC(=O)C1CCCCN1Cc1ccc(-c2ccccc2)cc1 (stereo unspecified)	2.9	2.4	-4.1	i	7.7	13.4	21.4	-9.9
O=[N+]([O-])c1cc(Br)cc(/C=N/n2cnnc2)c1O	9.1	-1.0	0.0	i	9.6	-9.3	-2.5	x
O=C(Cc1ccc([N+](=O)[O-])cc1)NCc1ccc2c(c1)OCO2	-17.9	2.3	3.7	i	5.9	-2.7	-13.0	x
CC(NC(=O)c1cccs1)C(c1cccs1)N1CCN(c2ccccc2)CC1 (stereo unspecified)	x	-3.5	-9.6	i	7.6	-10.8	-7.3	-7.8
Cc1cnc(NC(=O)c2cc3c(s2)CCCC3)s1	x	-8.6	-15.5	i	19.4	5.4	-7.6	x
C=C(C)Cn1c(-c2ccc(OC)cc2)nc2ccccc21	x	-4.3	-4.8	x	2.8	1.6	1.4	-16.3
O=C(CCCN1C(=O)c2ccccc2C1=O)N1CCCCC1	x	0.9	1.7	i	-14.2	16.1	-0.3	-3.4
CC(C)(C)c1ccc(CN2N=C(/C=C/c3ccccc3)CCC2=O)cc1	11.0	-4.4	-2.8	i	3.9	4.3	12.8	x
Cc1ccc(NC(=S)NCCC2=CCCCC2)cc1	-15.2	-0.7	-9.1	i	2.7	8.5	-9.2	-20.2
NC(=O)CC(NC(=O)c1cccc(Br)c1)c1ccc(NCC2CC2)c([N+](=O)[O-])c1 (stereo unspecified)	-10.2	4.8	3.2	i	-4.2	-1.5	4.2	-3.2
CC(C)(O)C#Cc1ccc(C(=O)NC(CCCNC(N)=O)C(=O)O)s1 (stereo unspecified)	-4.7	-1.8	5.2	i	-6.6	4.1	2.1	-14.0
Cc1cc(C)c2c(c1)cc(C)c1nnc(SCC(=O)Nc3ccccc3N3CCOCC3)n12	10.4	-3.5	-0.8	i	-8.8	-4.9	-1.9	x
O=C(O)CC(Cn1[nH]nnc1=S)c1ccccc1 (stereo unspecified)	-5.2	-3.4	0.2	i	2.1	7.1	-4.7	-24.4
COc1ccc(C(=O)COc2ccc3ccc(=O)oc3c2)cc1	19.4	-2.7	-4.2	i	-15.4	13.6	9.2	-4.8
O=C(CNC(=O)c1ccc(Br)o1)NNC(=O)c1n[nH]c(=O)c2ccccc12	-22.1	3.7	4.8	x	-0.9	x	x	-4.0
N#Cc1c(NC(=O)CSc2ncccn2)oc(-c2ccccc2)c1-c1ccccc1	-56.1	-0.4	-0.8	i	-15.0	x	x	-12.7
C[C@@H](O)C1NC(=O)[C@H](CCCCN)NC(=O)c2cc([N+](=O)[O-])cc(F)c2NCCCC[C@@H](C(N)=O)NC1=O (stereo partly specified)	x	-1.9	3.2	i	-0.1	-0.9	13.2	5.9
Cn1cc(SCC(=O)O)c2ccccc21	-14.7	-1.2	2.4	i	-9.5	-0.3	3.9	-7.5
CC1(C)COCN1C(=O)c1ccc(Cl)c(Cl)c1	1.2	-0.5	0.9	i	-29.4	1.8	-4.0	x
CCC(=O)n1nc(-c2cccnc2)nc1NCc1ccc(F)cc1	-24.8	x	x	i	3.8	15.1	-3.7	3.7
O=C(CNC(=O)c1ccc(Cl)cc1Cl)OCc1nc2ccccc2s1	-21.6	-1.8	4.5	i	-19.9	-19.2	-13.5	x
COc1cc(CSc2nnnn2-c2ccc(C)cc2)cc(OC)c1OC	95.2*	9.8	-23.2	i	-12.2	-16.0	-1.8	-25.5
O=C(O)/C(=C\c1ccco1)NC(=O)c1cccc2ccccc12	x	-0.1	3.1	i	x	11.6	22.7	-14.8
COc1ccc(S(=O)(=O)Nc2ccccc2OC)cc1NC(=O)c1cc2ccccc2oc1=O	-44.7	-0.1	-0.7	i	4.5	-8.5	-4.4	-2.3
COc1cccc(CNC(=O)CC2Sc3ccccc3NC2=O)c1 (stereo unspecified)	13.6	1.1	0.3	i	-5.6	-6.1	-4.2	x
Cc1ccc(C(=O)Oc2ccccc2N2C(=O)C3CCCCC3C2=O)cc1 (stereo unspecified)	-81.4	-15.6	-4.6	i	-4.2	8.9	-4.1	-10.0
COc1ccc(OC)c(C(=O)CC2OC(=O)c3ccccc32)c1 (stereo unspecified)	-11.3	3.3	-1.8	x	25.7	3.5	-1.1	-5.4
Nc1c(C(=O)c2ccc(Cl)cc2)sc2nsc(SCCN3CCOCC3)c12	23.5	-217.4	-26.0	i	26.5	39.9	32.6	-11.7
CC(OC(=O)c1ccco1)C(=O)Nc1nc(-c2ccccc2)cs1 (stereo unspecified)	-47.2	0.3	1.0	x	-1.7	x	x	5.2
CCCCn1c(=O)[nH]c(=O)c2c1nc(-c1ccc(-c3ccc(F)cc3)o1)n2C	4.7	x	x	i	-19.1	-12.1	-3.8	x
CCOC(=O)C1=C(c2ccccc2)Nc2ncnn2C1c1ccc(O)cc1 (stereo unspecified)	5.8	-5.5	-1.2	i	-13.4	-9.4	-5.2	x
CC1(C)Cc2c(sc3ncn4c(=S)[nH]nc4c23)CO1	17.1	-5.4	0.8	i	-6.2	-12.6	13.5	x
C=CCNC(=O)c1c[nH]c2ccc(S(=O)(=O)N(C)c3ccc(OCC)cc3)cc2c1=O	23.4	5.7	-14.4	i	9.2	1.5	-1.7	-7.9
Cn1cccc1Cc1nnc(SCC(=O)N2CCc3ccccc32)n1-c1ccc(F)cc1	21.9	1.4	-3.6	i	-0.3	-6.9	-4.8	-5.1

High-throughput results from PubChem BioAssay.
